High-throughput results (PubChem BioAssay)
eIF4H FP inh = inhibitors of RNA binding by human eIF4H | Q15056 | eIF4H fluorescence polarization binding assay | inhibition, % at 35 µM | 290,000 compounds, 0.94% hits | AID 2012;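 active means 50% or more with normal probe brightness, or confirmed in later tests; inconclusive means above 50% with abnormal brightness, or retests that disagree; inactive means below 50% or failed in later tests; about a fifth of its hits are not listed in these tables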;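 further: calls also rest on retests at 20 µM and on dose response follow-up; 0% = protein and probe with vehicle and 100% = probe without protein; strong numbers were not always called active; many hits fall short of the cut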
Rce1 inhib = inhibitors of yeast Ras-converting enzyme | 290,000 compounds, 0.27% hits | AID 2563 | yeast membranes, quenched prenylated peptide cleavage fluorescence | Q03530 | calls only;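 active means fall in fluorescence gain of 50% or more versus controls, with final raw signal at or below 3038400; inconclusive means same 50% fall but final raw signal above 3038400; inactive means fall in fluorescence gain under 50%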;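 further: plate controls were neutral control wells for no effect and wells lacking membranes for full effect; tested at 10 µM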
Target sequence (Q03530 whole entry, looked up): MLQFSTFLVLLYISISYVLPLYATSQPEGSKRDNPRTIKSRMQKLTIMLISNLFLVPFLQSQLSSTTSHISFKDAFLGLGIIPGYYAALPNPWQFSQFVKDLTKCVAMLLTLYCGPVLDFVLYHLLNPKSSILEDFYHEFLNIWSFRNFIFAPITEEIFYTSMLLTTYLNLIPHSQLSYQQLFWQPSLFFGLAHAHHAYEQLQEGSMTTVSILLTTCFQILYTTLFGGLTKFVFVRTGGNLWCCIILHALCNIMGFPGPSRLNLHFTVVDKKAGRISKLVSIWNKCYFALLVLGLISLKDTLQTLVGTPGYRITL
HIV Env fusion = inhibitors of HIV Env-mediated cell fusion; inhibition, % at 12.3 µM; 360,000 compounds, 1.1% hits; AID 651610; HeLa-JRFL Env/CEM21 cell fusion, luciferase;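 active means mean replicate inhibition score of at least 50 and every replicate individually at or above 50; inconclusive means only one of the two criteria met; inactive means mean below 50 and not all replicates reaching 50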;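 further: 0% = plate neutral controls and 100% = maraviroc near 300 nM; one replicate is shown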
PABP FP inh = PABP-poly(A) binding inhibition; 290,000 compounds, 1% hits; P11940; AID 2014; PABP-poly(A) RNA binding, fluorescence polarization; inhibition, % at 35 µM;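 active means 50% or more with normal probe brightness, or confirmed in later tests; inconclusive means above 50% with abnormal brightness, or retests that disagree; inactive means below 50% or failed in later tests; about a fifth of its hits are not listed in these tables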;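 further: calls also rest on retests at 20 µM and on dose response follow-up; controls were probe without protein and protein plus probe with vehicle; some compounds called inactive have numbers as strong as hits; many hits fall short of the cut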
Target sequence (P11940 whole entry, looked up): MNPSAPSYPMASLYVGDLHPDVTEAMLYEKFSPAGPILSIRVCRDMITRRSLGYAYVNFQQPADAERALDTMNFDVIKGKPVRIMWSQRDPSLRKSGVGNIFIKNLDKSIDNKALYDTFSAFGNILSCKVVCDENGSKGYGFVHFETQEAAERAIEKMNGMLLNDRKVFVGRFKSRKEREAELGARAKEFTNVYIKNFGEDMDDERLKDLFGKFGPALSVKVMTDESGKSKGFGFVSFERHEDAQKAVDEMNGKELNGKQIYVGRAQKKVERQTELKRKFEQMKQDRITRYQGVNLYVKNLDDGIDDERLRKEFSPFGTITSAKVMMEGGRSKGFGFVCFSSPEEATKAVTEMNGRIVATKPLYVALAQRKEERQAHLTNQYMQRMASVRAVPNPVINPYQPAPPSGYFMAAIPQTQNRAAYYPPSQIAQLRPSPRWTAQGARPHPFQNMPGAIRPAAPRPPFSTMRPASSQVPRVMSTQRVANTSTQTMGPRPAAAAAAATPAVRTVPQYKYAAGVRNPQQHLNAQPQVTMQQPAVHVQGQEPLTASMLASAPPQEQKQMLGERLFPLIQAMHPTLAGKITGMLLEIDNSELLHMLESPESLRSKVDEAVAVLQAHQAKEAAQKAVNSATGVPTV
CSC inhib = blocks cancer stem cells | cancer stem cell-like cells viability, luminescence | inhibition, % at 7.5 µM | 300,000 compounds, 1.1% hits;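 active means mean at 75% or more and at least half the replicates too; inconclusive means mean and replicates disagree; tested in HMLE shEcad cells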;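 further: 0% = median of negative and 100% = median of positive control wells; the first replicate is given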
Yeast UUG start = yeast start codon fidelity modulation. 350,000 compounds, 0.13% hits. S. cerevisiae UUG-firefly luciferase reporter, luminescence/redox ratio. AID 602363. activity score, % at 18.7 µM;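 active means replicate mean at a twofold rise or more, about +100% in these data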;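 further: firefly luciferase made from a UUG start codon reports start codon fidelity; reporter light over untreated wells divided by growth signal over untreated wells; some hits fall short of that in this replicate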
MT1-MMP act inh = blocks activation of human MT1-MMP; P50281; HT1080 RFP-PRO-GFP cells, GFP/RFP ratio fluorescence, overnight; percent of plate control window, DMSO zero; GFP/RFP ratio change, % at 20 µM; 360,000 compounds, 0.061% hits;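 active means GFP/RFP ratio change of at least 30% with cell ATP level not reduced by more than half and red fluorescence within 50% of control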; further: strong numbers were not always called active
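Assay system – RFP-PRO-GFP reporter HT1080 cells · Compound dosing – single dose of 20 µM compound, 1% DMSO final · Incubation – overnight compound exposure at 37 °C · Measure – GFP/RFP fluorescence ratio · Benchmarks – DMSO wells and RFP-L50D-GFP cells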
MT1-MMP act inh RFP = recorded beside MT1-MMP act inh, whose call it bears; RFP signal change, %; measured here: RFP expression control read;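 0 = vehicle wells; hits needed this value within 50% of zero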
Active calls of the source: *; i = inactive; ? = inconclusive; · = not tested or not shown.

A first look (five entries):
SMILES	eIF4H FP inh	Rce1 inhib	HIV Env fusion	PABP FP inh	CSC inhib	Yeast UUG start	MT1-MMP act inh	MT1-MMP act inh RFP
CC(=O)NC(Cc1ccc(C)cc1)C(=O)NC1CCN(S(=O)(=O)c2ccccc2)CC1 (stereo unspecified)	-13	i	4	-1	-7	-15	3	3
COc1ccc(C(=O)OCC(=O)Nc2ccc(N3CCOCC3)cc2)cc1OC	·	·	5	·	-3	-9	-1	-1
CCOC(=O)N1CCN(C(=O)c2cccn3c(=O)c4cc(Cl)ccc4nc23)CC1	-6	i	-3	-5	-5	-15	3	3
Cc1cccc2c(=O)c(C(=O)NCCc3ccccc3)c[nH]c12	-8	i	-12	-8	32	-2	6	-5
CCn1c(NC(=O)c2ccc(COc3ccc(C)cc3[N+](=O)[O-])o2)nc2ccccc21	3	i	17	-1	30	-11	1	-1

Main list (from the top)
SMILES	eIF4H FP inh	Rce1 inhib	HIV Env fusion	PABP FP inh	CSC inhib	Yeast UUG start	MT1-MMP act inh	MT1-MMP act inh RFP
CC(=O)NC(Cc1ccc(C)cc1)C(=O)NC1CCN(S(=O)(=O)c2ccccc2)CC1 (stereo unspecified)	-13	i	4	-1	-7	-15	3	3
COc1ccc(C(=O)OCC(=O)Nc2ccc(N3CCOCC3)cc2)cc1OC	·	·	5	·	-3	-9	-1	-1
CCOC(=O)N1CCN(C(=O)c2cccn3c(=O)c4cc(Cl)ccc4nc23)CC1	-6	i	-3	-5	-5	-15	3	3
Cc1cccc2c(=O)c(C(=O)NCCc3ccccc3)c[nH]c12	-8	i	-12	-8	32	-2	6	-5
CCn1c(NC(=O)c2ccc(COc3ccc(C)cc3[N+](=O)[O-])o2)nc2ccccc21	3	i	17	-1	30	-11	1	-1
Cc1cc(-c2nnc(SCC(=O)NC3CC3)n2C(C)C)cs1	2	i	-1	4	-13	-2	-1	3
COc1ccc(CCNC(=O)C2=CCN(S(=O)(=O)c3ccc(F)cc3)CC2)cc1OC	21	i	-3	10	6	-2	-3	-4
Cc1cc(C)cc(-n2ccnc2SCC(=O)Nc2ccc3c(c2)OCCO3)c1	-5	i	·	0	-14	-20	5	0
CCN(CC)S(=O)(=O)c1cc(NC(=O)c2cc([N+](=O)[O-])ccc2N2CCOCC2)ccc1C	4	i	9	2	8	-7	-1	-5
CSc1nccc(NC(=O)c2cccc(Br)c2)n1	-6	i	5	2	13	-10	-1	-14
O=C(NCCCN1CCOCC1)c1cc(-c2ccc(F)cc2)on1	5	i	-150	2	-3	-17	7	6
CCc1ccc(C(=O)c2ccccc2C(=O)O)s1	-4	i	-141	2	-4	-11	8	10

Structures from the list above that contain fluorine, in the order listed:
SMILES	eIF4H FP inh	Rce1 inhib	HIV Env fusion	PABP FP inh	CSC inhib	Yeast UUG start	MT1-MMP act inh	MT1-MMP act inh RFP
COc1ccc(CCNC(=O)C2=CCN(S(=O)(=O)c3ccc(F)cc3)CC2)cc1OC	21	i	-3	10	6	-2	-3	-4
O=C(NCCCN1CCOCC1)c1cc(-c2ccc(F)cc2)on1	5	i	-150	2	-3	-17	7	6

The listing continues:
SMILES	eIF4H FP inh	Rce1 inhib	HIV Env fusion	PABP FP inh	CSC inhib	Yeast UUG start	MT1-MMP act inh	MT1-MMP act inh RFP
COC(=O)c1cccc(Cn2cc([N+](=O)[O-])cn2)c1	-3	i	·	-4	4	·	·	·
Cc1ccc2nc(COc3ccc(Cl)cc3)cc(=O)n2c1	36	i	-28	-12	-3	·	4	-3
CC(=O)c1ccc(S(=O)(=O)N(C)CC(=O)NCC2CCCCC2)cc1	-4	i	-13	3	-7	-12	-5	-5
CC(/C=N/NC(=O)c1ccco1)=C\c1ccccc1	-8	·	-92	-6	-10	-26	0	1
Cc1ccc(C)n1-c1cc([N+](=O)[O-])ccc1-n1ccnc1	-1	i	-5	-5	-10	-17	8	4
Cc1cc(NC(=O)CSc2nnc(Cn3c(=O)sc4ccccc43)n2-c2ccccc2C)no1	12	i	-41	8	·	-15	-3	0
O=C(C1=C(O)C(=O)N(CCN2CCOCC2)C1c1ccc([N+](=O)[O-])cc1)c1cccs1 (stereo unspecified)	0	i	·	17	-13	-14	0	0
COc1ccc(Br)c(C(=O)OCC(=O)NC2CCCCCCC2)c1	·	·	15	·	·	-4	5	3
O=C(CSc1nnc(-c2ccncc2)n1CCc1ccccc1)N1CCCC1	-5	i	·	-6	-13	·	·	·
CC(C)(C)c1ccc(C(=O)NCC(=O)OCC(=O)Nc2ccc3c(c2)OCCO3)cc1	-10	i	1	6	-5	·	3	2
CCOC(=O)CCCCC(=O)c1[nH]c(=O)[nH]c1CN1CCOCC1	3	i	·	-2	-9	7	-3	5
O=C(O)C1CCCCC1C(=O)Nc1ccc(F)c(F)c1 (stereo unspecified)	-4	i	-2	-1	-2	·	-3	-3
O=C(Nc1nnc([C@H]2C[C@H](O)[C@@H](CO)O2)s1)Nc1ccccc1Oc1ccccc1	·	·	?	·	·	-11	0	3
Cc1ccoc1C(=O)NCCNc1ccc(Cl)cc1[N+](=O)[O-]	9	i	·	4	-7	-10	9	-2
CCOc1ccc(-c2nnc3ccc(SCc4ccc(C(=O)OC)o4)nn23)cc1	-3	·	-15	3	9	-16	-6	-6
O=C(NC1CCCCC1)N1CCC(n2c(=O)[nH]c3ccccc32)CC1	-4	i	34	-2	·	-5	6	-3
O=C(CCCCCCC(=O)NCc1ccccc1)NCc1ccccc1	2	i	-13	-1	-9	-28	-1	2
COc1ccc(CCNC(=S)N(C)C)cc1OC	-4	i	-8	6	22	-15	0	1
COc1ccc(-c2sc3ccccc3c2C#CC2(O)CCCCC2)cc1	-3	i	49	5	89*	-7	5	2
C[C@H]1[C@H](C)CC[C@]2(C(=O)O)CC[C@]3(C)C(=CC[C@@H]4[C@@]5(C)C[C@@H](O)[C@H](O)C(C)(C)[C@@H]5CC[C@]43C)[C@H]12	-6	i	·	3	95*	-1	0	0
COc1cccc(/C=N/NC(=O)c2ccc3nc[nH]c3c2)c1O	0	i	10	2	30	-15	4	4
O=C(Nc1cccc(Cl)c1)c1ccc(NCC2CCCO2)c([N+](=O)[O-])c1 (stereo unspecified)	?	i	-9	-4	-5	-14	-16	-5
CCc1cc2cc3c(cc2nc1SCC(=O)Nc1cc(OC)c(OC)cc1C(=O)O)OCO3	-1	i	·	-1	3	·	·	·
Nc1c(Cl)cc(C2=NCCn3c2c2ccc([N+](=O)[O-])cc2[n+]3[O-])cc1Cl	·	i	21	·	8	33	-15	-7
Cc1ccc(-n2[nH]c(C)c(CCC#N)c2=O)cc1	-4	i	·	7	20	·	1	7
COc1ccc(OC)c(NC(=O)c2cccc(Cn3cc(Br)c([N+](=O)[O-])n3)c2)c1	-9	i	7	-9	6	-22	2	-8
O=C(NNC(=O)c1cccnc1SCc1cccc([N+](=O)[O-])c1)c1cccnc1	-1	i	15	-1	-9	·	1	-3
COC(CNC(=O)c1ccc2nc3ccccc3c(=O)n2c1)OC	-1	i	1	4	7	-8	1	3
CN(C)c1ccc2c(=O)[nH][nH]c(=O)c2c1	-7	i	-17	-8	-6	·	4	2
COCC(C)NS(=O)(=O)c1ccc(NC(=O)C(Cc2ccccc2)NC(N)=O)cc1 (stereo unspecified)	-5	i	-20	11	-16	-41	-3	1
Cc1cccn2c(=O)nc(SCC(=O)NCc3ccc4c(c3)OCO4)nc12	·	i	4	·	4	-7	2	2
COc1cccc(OC)c1OC(=O)c1cnccn1	15	i	-2	1	-10	-16	0	1
CCOCc1nnc(NC(C)=O)s1	-14	i	-25	-12	-14	-10	-6	4
CCc1ccc(C(=O)OCC(=O)NCCNC(=O)COC(=O)c2ccc(CC)cc2)cc1	-6	i	-8	-20	-9	-14	-2	2
Cc1cc(C)n2nc(SCC(=O)N/N=C/c3ccccn3)nc2n1	4	i	13	12	-6	·	4	7
CCNC(=S)N/N=C(\C)c1ccc2ccccc2c1	-1	i	·	-10	1	·	·	·
COc1ccc(OC)c(/C=c2\sc3nc(-c4cccs4)nn3c2=O)c1	?	i	-19	0	-3	1	-2	0
CSc1nc(N)nc2c1ncn2CC(=O)N[C@H](C)c1cccc2ccccc12	·	·	1	·	·	-12	-1	-2
Nc1ccccc1C(=O)NN=Cc1cccc([N+](=O)[O-])c1	·	·	-97	·	·	-33	5	6
C=C(C)C1CCC2(C(=O)O)CCC3(C)C(CCC4C5(C)C(C=O)C(O)C(C)(C)C5CCC43C)C12 (stereo unspecified)	-13	i	·	11	-7	-8	-11	-16
O=C(CSc1ccc2ccccc2c1Br)Nc1cccc(S(=O)(=O)NC2=NCCCCC2)c1	3	i	3	-2	91*	·	4	6
CCc1ccccc1N1CC23C=CC(O2)C(C(=O)OCC(C)C)C3C1=O (stereo unspecified)	-13	i	-13	-9	8	-3	1	3
O=C1CC(N2CCN(c3ccc(F)cc3)CC2)C(=O)N1Cc1cccs1 (stereo unspecified)	-5	i	·	-4	-10	-2	-4	-2
COc1ccc(CCNC(=O)CCN2C(=O)COc3ccc(C)cc32)cc1OC	-4	i	-44	0	2	7	6	4
Cc1ccc(C(=O)NCC(=O)Nc2ccncc2)cc1	-2	i	13	-2	-8	-15	5	-3
c1ccc(Cn2c(CSc3nnnn3-c3ccccc3)nc3ccccc32)cc1	-8	i	·	5	-4	-11	-1	-7
O=C(CN(c1ccccc1F)S(=O)(=O)c1ccccc1)Nc1ccc2c(c1)OCCO2	-7	·	-65	0	-8	-8	0	0
Cc1ccc(NC2OC(CO)C(O)C(O)C2O)cc1 (stereo unspecified)	7	i	·	2	3	-9	-3	-2
O=C1CC(NNc2ccccc2)C(=O)N1c1ccccc1 (stereo unspecified)	3	i	12	0	13	·	3	4
CCc1ccc(NC2CC(=O)N(c3ccc(OC)cc3OC)C2=O)cc1 (stereo unspecified)	-5	·	·	7	4	8	5	3
CC(=O)c1sc(NC(=O)C(C)C)nc1C	0	i	·	-2	-20	-7	5	1
COc1cccc(CNS(=O)(=O)c2ccc(-n3cnnn3)c(C)c2)c1	-1	i	-11	0	-2	-3	-2	-4
CCC(C)C(=O)Nc1nc(C)c(-c2csc(Nc3cc(OC)ccc3OC)n2)s1 (stereo unspecified)	-3	i	21	-1	64	-23	-7	-14

Shown as a markdown table: five of the compounds above.
| molecule | eIF4H FP inh | Rce1 inhib | HIV Env fusion | PABP FP inh | CSC inhib | Yeast UUG start | MT1-MMP act inh | MT1-MMP act inh RFP |
| --- | --- | --- | --- | --- | --- | --- | --- | --- |
| CCc1ccc(NC2CC(=O)N(c3ccc(OC)cc3OC)C2=O)cc1 (stereo unspecified) | -5 | · | · | 7 | 4 | 8 | 5 | 3 |
| CCC(C)C(=O)Nc1nc(C)c(-c2csc(Nc3cc(OC)ccc3OC)n2)s1 (stereo unspecified) | -3 | i | 21 | -1 | 64 | -23 | -7 | -14 |
| COc1cccc(CNS(=O)(=O)c2ccc(-n3cnnn3)c(C)c2)c1 | -1 | i | -11 | 0 | -2 | -3 | -2 | -4 |
| CC(=O)c1sc(NC(=O)C(C)C)nc1C | 0 | i | · | -2 | -20 | -7 | 5 | 1 |
| O=C1CC(NNc2ccccc2)C(=O)N1c1ccccc1 (stereo unspecified) | 3 | i | 12 | 0 | 13 | · | 3 | 4 |

A portion of the library, so the mix of outcomes need not match the whole.
